From PubChem BioAssay
Mtb growth: M. tuberculosis H37Rv growth inhibitors, H37Rv strain (AID 1626); M. tuberculosis H37Rv growth inhibition; higher % means a stronger effect; inhibition, % at 10 µM, or IC50 in µM where a hit was titrated; 220,000 tested, 0.95% active;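 active = confirmed in a dose series; inconclusive = inhibition above 80% but not taken into the dose series; inactive = below 80% or under 30% at every dose of the series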;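 note: bacteria incubated seven days before Alamar blue readout; 0% = bacteria only wells and 100% = bacteria with antibiotic wells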
YopH inh: YopH tyrosine phosphatase inhibitors, primary screen, biochemical, fluorescence Ex485/Em525; 140,000 tested, 0.16% active; YopH tyrosine phosphatase [Yersinia enterocolitica]; inhibition, %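 (about 10 µM by stock and volumes)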;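 active = inhibition of 50% or more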;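 note: controls were vehicle for no effect and minimum signal wells for full effect; inactives centre near -20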
RecA intein inh: Mtb RecA intein splicing inhibitors, primary screen, biochemical, fluorescence, HTS; 290,000 tested, 0.75% active; Protein RecA (Mycobacterium tuberculosis (strain ATCC 25618 / H37Rv)), P9WHJ3; inhibition, %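 (about 9 µM by stock and volumes)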; cell-free RecA intein splicing; AID 2221, 2009; in the data active = inhibition above about 30%; inconclusive = no clear call, values can overlap the other calls;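 note: 0% = vehicle wells and 100% = reference inhibitor control wells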
Target sequence (P9WHJ3 whole entry, looked up): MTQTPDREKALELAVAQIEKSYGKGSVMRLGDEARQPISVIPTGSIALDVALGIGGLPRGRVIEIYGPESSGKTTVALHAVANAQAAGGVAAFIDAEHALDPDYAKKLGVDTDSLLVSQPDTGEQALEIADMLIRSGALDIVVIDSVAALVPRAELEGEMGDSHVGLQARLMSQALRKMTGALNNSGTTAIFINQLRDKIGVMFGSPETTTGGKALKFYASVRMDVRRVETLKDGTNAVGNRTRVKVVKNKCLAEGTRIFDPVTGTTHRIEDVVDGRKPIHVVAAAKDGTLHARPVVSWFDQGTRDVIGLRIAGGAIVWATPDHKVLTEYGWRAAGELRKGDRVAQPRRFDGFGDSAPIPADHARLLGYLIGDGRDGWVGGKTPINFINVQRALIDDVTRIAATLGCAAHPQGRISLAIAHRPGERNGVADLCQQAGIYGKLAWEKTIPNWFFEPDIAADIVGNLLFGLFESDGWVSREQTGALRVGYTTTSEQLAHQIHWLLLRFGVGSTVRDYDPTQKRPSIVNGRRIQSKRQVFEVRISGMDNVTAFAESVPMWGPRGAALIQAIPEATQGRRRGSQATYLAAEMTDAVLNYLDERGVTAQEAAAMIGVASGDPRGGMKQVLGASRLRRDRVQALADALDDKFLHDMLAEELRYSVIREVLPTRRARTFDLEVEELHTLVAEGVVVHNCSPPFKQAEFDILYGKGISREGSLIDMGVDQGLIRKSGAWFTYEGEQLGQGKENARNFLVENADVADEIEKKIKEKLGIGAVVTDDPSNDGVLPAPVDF
Mtb bLac sens: beta-lactam sensitization of Mtb H37Rv, H37Rv; inhibition, % at 25 µM; AID 434955, 2010; M. tuberculosis H37Rv growth with meropenem, percent inhibition; hits of this screen are not shown here; 330,000 tested, 0.27% active;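 active = about 74% or more and at least 40 points above the plate without the antibiotic, then above 30% in a dose series; inconclusive = first-round hits that could not be retested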;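 note: growth measured after seven days incubation then overnight dye step; 0% = bacteria only wells and 100% = bacteria with antibiotic; twin plates without the antibiotic show which effects depend on it; some results filed as inactive read as strong as hits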
Arbovirus anti: antivirals against arbovirus infection, primary screen, cell-based, full library, 10K replicate subset | arbovirus infection cell-based antiviral screen | inhibition, % at 10 µM | 200,000 tested, 0.37% active;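 active = inhibition from about 30%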;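 note: bluetongue infection of BSR cells; cell survival read as ATP light after 72 h; 0% = infected wells without compound and 100% = uninfected wells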
Arbovirus anti repeat: further read-out of Arbovirus anti, marked with its call; inhibition, %; measured here: 10K subset replicate screen; many hits read low in the repeat;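 first of two repeat runs on a subset; 0% = infected and 100% = uninfected wells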
* = called active by the depositor; ? = inconclusive; nt = not tested or not shown. A portion of the library; the hit share may differ from the screen's.

SMILES | Mtb growth | YopH inh | RecA intein inh | Mtb bLac sens | Arbovirus anti | others
O=C(CSc1ccc(-c2cccc([N+](=O)[O-])c2)nn1)N1CCCCCC1 | 2% | nt | 1.7 | -6 | -4
COc1cc([N+](=O)[O-])ccc1NC(=O)Oc1ccc(NC(C)=O)cc1 | -12% | nt | 0.7 | -2 | nt
O=C(COC(=O)c1cc(S(=O)(=O)N2CCOCC2)ccc1O)NCCc1ccccc1 | -11% | -13 | -1.8 | -2 | 7
CN1CCN(c2ccccc2NC(=O)c2ccc(-c3ccccc3)cc2)CC1 | 21% | -7 | 8.9 | -3 | -18
CC1CCN(CC(=O)Nc2nn(-c3ccccc3)nc2C(N)=O)CC1 | 6% | nt | nt | 1 | -1
CC1=NN(c2nc(-c3ccc(C)cc3)cs2)C(=O)C1N=Nc1cccc(O)c1 (stereo unspecified) | ? | nt | 5.8 | -4 | 22
CCc1c(C)sc(NC(=O)c2cc(-c3ccc(OC)c(OC)c3)on2)c1C#N | -3% | 23 | nt | 0 | -3
CCn1c(COC(=O)CNC(=O)c2ccccc2)nc2cc(S(=O)(=O)N(C)C)ccc21 | nt | nt | -1.2 | 1 | nt
O=S1OCCN1c1ccccc1 (stereo unspecified) | nt | nt | 1.7 | -1 | nt
CCC(C)N1C(=S)SC(C)(C)C1N(O)C(=O)NC1CCCCC1 (stereo unspecified) | 4% | nt | -4.3 | -6 | nt
Cc1cc(C)cc(NC(=O)CCC(=O)Nc2nnc(C(F)(F)F)s2)c1 | -3% | nt | 0.5 | 1 | nt
CCOc1ccc(Cl)cc1S(=O)(=O)N1CCC(C(=O)NCc2cccnc2)CC1 | nt | nt | 0.7 | 11 | nt
CCCOc1ccccc1NS(=O)(=O)c1ccc2[nH]c(=O)[nH]c2c1 | nt | nt | 0.3 | -8 | nt
CN(C)CCN(Cc1ccccc1)C(=O)[C@H](Cc1ccccc1)N1C(=O)c2ccccc2C1=O | nt | nt | -0.8 | -4 | nt
FC(F)(F)c1cc(-c2ccco2)nc(-n2nnc3ccccc32)n1 | 2% | -20 | 0.1 | -6 | -8
CC(=O)N1c2ccc(S(=O)(=O)N3CCC(C(=O)N4CCN(c5ccccc5F)CC4)CC3)cc2CC1C (stereo unspecified) | nt | nt | 1.7 | 6 | nt
Cc1ccc(S(=O)(=O)CCC(=O)OCC(=O)c2ccc(C)c(C)c2)cc1 | -1% | -31 | -2.6 | 4 | -1
CC1CCCCN1Cc1ccc(-c2nn[nH]n2)cc1 (stereo unspecified) | 1% | -24 | -0.4 | -11 | 0
CC(C)CN1C(=O)c2ccc(C(=O)Nc3ccc(O)cc3C(=O)O)cc2C1=O | nt | nt | -1.2 | -7 | nt
COc1cccc(/C=C/C(=O)NNC(=O)c2cc(C)oc2C)c1 | nt | nt | 2.9 | 7 | nt
COc1ccc(C(=O)NNC(=O)C2CCN(S(=O)(=O)c3ccc(C)cc3)CC2)cc1 | -1% | nt | 0.4 | 1 | 1
Cc1nc2ccc(Br)cc2c(-c2ccccc2)c1C(=O)O | nt | nt | -0.4 | 7 | nt
COc1ccc(N=C2NN=C(c3ccc4c(c3)OCCO4)CS2)cc1 | -3% | -15 | 6.7 | 15 | 0
Cc1ccc(S(=O)(=O)NCCC(=O)Nc2cccc(S(N)(=O)=O)c2)cc1C | nt | nt | 2.5 | 6 | nt
COc1ccc(/C=C2\SC(=S)N(CCCC(=O)N3CCOCC3)C2=O)cc1 | nt | nt | 14 | 1 | nt

Reprinted from the entries so far, four compounds:
SMILES | Mtb growth | YopH inh | RecA intein inh | Mtb bLac sens | Arbovirus anti | others
O=C(CSc1ccc(-c2cccc([N+](=O)[O-])c2)nn1)N1CCCCCC1 | 2% | nt | 1.7 | -6 | -4
COc1cc([N+](=O)[O-])ccc1NC(=O)Oc1ccc(NC(C)=O)cc1 | -12% | nt | 0.7 | -2 | nt
O=C(COC(=O)c1cc(S(=O)(=O)N2CCOCC2)ccc1O)NCCc1ccccc1 | -11% | -13 | -1.8 | -2 | 7
CN1CCN(c2ccccc2NC(=O)c2ccc(-c3ccccc3)cc2)CC1 | 21% | -7 | 8.9 | -3 | -18

(cont.)
SMILES | Mtb growth | YopH inh | RecA intein inh | Mtb bLac sens | Arbovirus anti | others
CC1Nc2nc(NC(=O)C(C)(C)C)[nH]c(=O)c2N(C)C1C (stereo unspecified) | 3% | -26 | -5.4 | -4 | -2
CC1CCC2(CC1)NC(=O)N(Cc1nnc(-c3cccs3)o1)C2=O (stereo unspecified) | -4% | nt | -1.8 | -9 | 15
Cc1noc(C)c1C(=O)N1CCN(Cc2ccc3c(c2)OCO3)CC1 | -3% | -27 | 0.0 | -11 | 0
O=C(CCc1ccccc1)NNC(=O)c1ccccn1 | ? | nt | 4.5 | 87 | -21
O=C(CSC1c2ccccc2-c2ccccc21)N/N=C/c1ccccc1O | 7% | -9 | 2.8 | -9 | -20
COc1ccc(C2c3c(oc4ccccc4c3=O)C(=O)N2c2ccccn2)cc1OC (stereo unspecified) | nt | nt | -1.4 | 9 | -5 | Arbovirus anti repeat=-3
Cc1ccc(NC(=O)Cn2c(=O)oc3ccccc32)cc1 | -1% | nt | -0.6 | -15 | -4
CCN(c1ccccc1)S(=O)(=O)c1ccc(OC)c(NC(=O)CNCC(C)O)c1 (stereo unspecified) | 1% | -41 | -2.1 | 3 | -10
COc1ccc(C(=O)NC2CCN(CC(=O)NCc3ccccc3F)CC2)cc1 | nt | nt | -3.3 | -3 | nt
COc1cccc(Nc2nc3ccc(C(=O)c4ccccc4)cc3n3cnnc23)c1 | 1% | nt | -1.0 | -1 | nt
Cc1csc(SCC(=O)Nc2nncs2)n1 | nt | nt | -1.9 | -3 | nt
Nc1ccc2nc(-c3cccc(-c4nc5ccc(N)cc5[nH]4)c3)[nH]c2c1 | nt | nt | 10 | -9 | nt
O=C(CCN1C(=O)C2CC=C(Cl)CC2C1=O)Nc1ccccc1O (stereo unspecified) | 2% | -17 | -2.1 | -15 | 3
O=c1[nH]n2c(=O)c3c([nH]c2c1N=Nc1cccc(Cl)c1)CCC3 | 3% | -20 | 8.4 | 58 | 34*
CN(Cc1ccccc1)S(=O)(=O)c1ccc(OCC(=O)NCc2ccccn2)cc1 | nt | nt | -1.7 | -5 | nt
O=C(NC1CCCCC1)C(c1cccnc1)N(C(=O)c1ccc(Cl)nc1)C1CCCCC1 (stereo unspecified) | nt | nt | 2.9 | -11 | 14
CC(=O)NC1CC2CCCC(C1)N2S(=O)(=O)c1cccc(F)c1 (stereo unspecified) | -10% | -26 | -3.3 | -1 | 5
CSc1ccc(Cl)c(C(=O)N(C)CC(=O)Nc2ccc(N3CCOCC3)cc2)c1 | nt | nt | -3.5 | -1 | nt
Cc1cc(C)c2ccc(C(=O)O)nc2c1O | -5% | -28 | -1.6 | 4 | 0
CNC(=S)N1N=C(c2ccccc2)CC1c1ccc(Br)cc1 (stereo unspecified) | 1% | -10 | 22 | 18 | 8
O=C(Nc1ccc(-c2cn3ccccc3n2)cc1)c1ccc(Cl)cc1 | 1% | -15 | -0.4 | -9 | -6
CC(=O)NC1C(O)OC(CO)C(O)C1O (stereo unspecified) | nt | nt | 0.0 | 0 | nt
CCN(CC)C(C)C(=O)NCC1(c2ccccc2)CCOCC1 (stereo unspecified) | -12% | -8 | 1.0 | -2 | 0
CCC(=O)c1cn(CC(=O)Nc2cc(C)ccc2C)c2ccccc12 | nt | nt | -1.0 | -3 | nt
CN(Cc1ccccc1)C(=O)c1nc2ccccn2c1CNCCCOc1cccnc1 | -2% | nt | -0.3 | -3 | -2

Following part
SMILES | Mtb growth | YopH inh | RecA intein inh | Mtb bLac sens | Arbovirus anti | others
O=C(Nc1ccccc1)Nc1ccc(Br)c(Cl)c1 | 18% | -5 | 2.3 | 7 | 8
COc1ccc(C2=NCc3nnc(C)n3-c3ccc(Cl)cc32)cc1Cl | -4% | -9 | 0.1 | -7 | -27
Cc1oc(-c2cccc(Cl)c2)nc1CS(=O)(=O)CC(=O)NCCCN1CCOCC1 | nt | nt | 2.5 | 3 | nt
O=C(NNc1c(F)c(F)cc(F)c1F)c1cc2ccccc2oc1=O | ? | nt | 3.7 | 95 | -3
O=C(CSC(=S)N1CCCC1)NCC(=O)Nc1ccc(F)c(F)c1 | nt | nt | 3.6 | 5 | nt
COc1ccc(-n2c(SCC(=O)O)nc3sc4c(c3c2=O)CCC4)cc1 | -7% | nt | -1.2 | -6 | 1
Cc1nn(Cc2cccc(F)c2)c(C)c1NC(=O)c1ccc(COc2ccccc2Cl)cc1 | 63% | -27 | 0.7 | 93 | -39
NNC(=O)Cn1nc2n(c1=O)-c1ccccc1SC2 | -6% | nt | 2.1 | -4 | nt
COc1ccc(CCNC(=O)c2c(O)c3c([nH]c2=O)CCCC3)cc1OC | nt | -57 | nt | -7 | nt
CC1CCN(CC(O)COc2ccc(OCC(O)CN3CCC(C)CC3)cc2)CC1 (stereo unspecified) | nt | nt | -7.2 | -8 | nt
Cc1nn(CC(=O)O)c(C)c1NC(=O)c1cccs1 | nt | nt | 0.4 | 3 | nt
Cc1cc(C(=O)Nc2ccc(Br)cc2)c2ccccc2n1 | nt | nt | 0.1 | 0 | nt
O=C(CSc1nccn(-c2ccc(Br)cc2)c1=O)NCc1ccccc1 | nt | nt | -0.8 | -8 | nt
CCCC(=O)Nc1ccc(Cl)c(NC(=O)CC)c1 | -13% | -45 | 3.4 | -2 | -2
CCOC(=O)C1CCN(C(=O)Cn2nc(C)n3c(cc4cc(F)ccc43)c2=O)CC1 | nt | nt | -0.6 | 5 | nt
COc1ccc(-n2nc3c(c2NC(=O)COc2ccccc2)CS(=O)C3)cc1 (stereo unspecified) | nt | nt | 1.3 | 14 | nt
CCC(C)[C@H](NC(=O)[C@H](Cc1ccccc1)n1c(=O)[nH]c2ccccc2c1=O)C(=O)N1CCC[C@@H]1C(=O)O (stereo partly specified) | nt | nt | 3.8 | -5 | nt
Cc1ccc(Nc2cc(C)nc3nnnn23)cc1 | 3% | 14 | -14 | -7 | 5
CCOc1ccc(CN(CCC#N)C(=S)NC(=O)c2ccccc2)cc1 | ? | -36 | 1.8 | 52 | -16
C=CCNC(=O)/C(=C\c1ccco1)NC(=O)c1ccco1 | nt | nt | -4.6 | 1 | nt
OC[C@H](O)[C@H](O)[C@@H](O)[C@@H](O)[C@@H]1SC(c2ccccc2)=NN1c1ccccc1 | 2% | nt | -7.9 | -12 | nt
Cc1ccc(C(=O)Nc2ccc3c(c2)OCCO3)c(C)c1 | nt | nt | 2.7 | 9 | nt
Cc1ncc(CO)c(/C=N/NC(=O)c2ccccc2Br)c1O | 4% | -34 | -21 | -2 | -10
Cc1ccc(O)c(C(=O)c2cc(C(=O)NCCc3ccccc3)c(=O)n(CCc3ccccc3)c2)c1 | 10% | -22 | 5.8 | 10 | 3
CCn1nc(C)c(C2C(C#N)=C(N)OC3=C2C(=O)CC(C)(C)C3)c1C (stereo unspecified) | 5% | 8 | -0.7 | -3 | 6

More entries
SMILES | Mtb growth | YopH inh | RecA intein inh | Mtb bLac sens | Arbovirus anti | others
COc1ccc(OC)c(S(=O)(=O)N2CCCC(C(=O)NCCN3CCOCC3)C2)c1 (stereo unspecified) | nt | nt | -3.1 | -2 | nt
Cc1ccc(OCC(=O)Nc2ccc(N3CCN(C(=O)c4ccc(C)cc4)CC3)cc2)cc1 | -3% | nt | 0.6 | -3 | -11
Cc1cccc2cc(C#N)c(SCC#N)nc12 | 0% | nt | -2.2 | 5 | -4
C/C(=N\NC(=O)c1ccc(N2CCCC2=O)cc1)c1ccc(O)cc1O | nt | nt | -4.3 | -1 | nt
O=C(c1ccc(Cl)cc1)N(Cc1ccccc1F)N1C(=O)CCCC1=O | 2% | nt | -3.0 | -9 | 4
CCNS(=O)(=O)c1ccc2c(c1)n(C)c(=O)n2C | -4% | -11 | -1.7 | -7 | -7
CC(c1cccs1)N(Cc1ccco1)C(=S)Nc1ccccc1Cl (stereo unspecified) | 7% | nt | 16 | -1 | 8
O=C(Cn1cnc2c(nnn2-c2cccc(Cl)c2)c1=O)N1CCCC1 | -7% | -46 | -1.1 | 8 | 15
CC(=O)Nc1ccc(Oc2cc(NC(C)=O)cc([N+](=O)[O-])c2)cc1 | 5% | nt | 0.5 | 1 | -1
CN1CCN(C(=O)CCc2ncc(C(F)(F)F)cc2Cl)CC1 | 4% | nt | -2.5 | 0 | 17
CN1C(=S)N(c2ccccc2)C(=O)/C1=C/c1cccs1 | 1% | -6 | -3.4 | -2 | -14
NC(=O)NCCN1CCN(c2ncc(C(F)(F)F)cc2Cl)CC1 | 1% | nt | -3.6 | -8 | 12
COC(=O)CC1c2cc(OC)c(OC)cc2CC(=O)c2cc(OC)c(OC)cc21 (stereo unspecified) | -3% | 1 | -7.7 | -4 | 4
